Compound activity (PubChem BioAssay)
GLA inh pH 4.5: alpha-galactosidase A (human) inhibition, pH 4.5. purified enzyme, 4-MU-alpha-Gal fluorescence, pH 4.5. activity change, negative = inhibition, % at 105 µM. 230,000 tested, under 10 active. AID 1467; inconclusive = small, poorly fitted or top-dose-only inhibition, or a rising curve; inactive = flat fitted curve, though single readings scatter; no compound was filed as active;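 also: 0% = full activity with enzyme and -100% = basal without enzyme; dose as in the result columns while the protocol names 77 µM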
Target sequence (P06280 whole entry, looked up): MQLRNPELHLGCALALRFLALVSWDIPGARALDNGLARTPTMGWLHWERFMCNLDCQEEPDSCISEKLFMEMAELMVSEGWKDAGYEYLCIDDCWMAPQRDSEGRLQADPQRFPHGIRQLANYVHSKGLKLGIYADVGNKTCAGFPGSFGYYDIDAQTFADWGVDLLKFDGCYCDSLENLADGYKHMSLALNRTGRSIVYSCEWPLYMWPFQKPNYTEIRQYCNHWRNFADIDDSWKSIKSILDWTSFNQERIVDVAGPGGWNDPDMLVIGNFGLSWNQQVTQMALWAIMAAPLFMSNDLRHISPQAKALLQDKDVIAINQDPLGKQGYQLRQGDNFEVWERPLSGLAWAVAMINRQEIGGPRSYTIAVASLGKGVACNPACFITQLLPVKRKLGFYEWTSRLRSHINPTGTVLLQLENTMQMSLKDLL
Rango-impB inh: Rango-importin beta binding inhibition | Rango CFP/YFP FRET sensor + importin beta, 45 min | Q14974 | Potency, µM (highest dose often 92.2 µM), without a hit: at the top dose inhibition of complex formation | actives 0.031% (n = 340,000); active = rising FRET ratio curve, often small or poorly fitted; inconclusive = mostly compound fluorescence or quenching in the first reads; inactive = flat curves in all reads;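 also: potency is read from the fitted curve at half-maximal effect; 0% = DMSO wells and 100% = buffer wells lacking importin beta; nearly all actives have a fitted effect of over 15% in size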
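Inhibition scored from the CFP 486 nm/YFP 530 nm FRET ratio 45 min after adding 0.125 microM importin beta to 50 nM Rango biosensor preincubated 5 min with compound (room temperature, PBS with DTT, Tween-20, BSA). No-importin wells as positive control.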
Rango dissoc inh: inhibitors of RanGTP-induced Rango-importin beta complex dissociation. O95149+P62826. actives 0.071% (n = 340,000). Potency, µM (doses to about 46.1 µM), inactives show top-dose activity change, negative = inhibition. Biochemical FRET Rango-importin beta, RanGTP-induced dissociation. AID 540253; active means falling FRET ratio curve, often poorly fitted, with flat reads before Ran was added; inconclusive means other falling curves, or compound fluorescence or quenching; inactive means flat or rising ratio curve;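 also: potency is read from the fitted curve at half-maximal effect; % of control where 0% means no effect; nearly all actives have a fitted effect of over 45% in size; -100% = wells without RanGTP and RCC1; the record marks most hits as doubtful in a second field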
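Recombinant Rango FRET biosensor (EYFP–snurportin 1 IBB–cerulean CFP10) at 0.1 uM premixed with 0.25 uM importin beta in PBS, 1 mM DTT, 0.02% Tween-20, 0.1% BSA. Compound added 5 min; RanGTP-RCC1 (0.6 uM Ran, 2 mM GTP, 0.2 uM RCC1) then triggers release, read at 45 min.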
miR-21 FLuc: miR-21 reporter, rising signal; HeLa miR-21 FLuc reporter, luciferase, 48 h; Potency, µM (titrated, usually from 38.3 µM), for inactives: at the highest dose reporter change, positive = more light; 340,000 tested, under 10 active; active = well fitted rising curve with a large enough effect; inconclusive = small, poorly fitted or top-dose-only effect; inactive = no such curve, though single readings can be large or run the other way;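 also: % of control where 0% means no effect; miR-21 action dims this reporter so a rising signal means less miR-21 action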
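Compounds were titrated across several concentrations (up to approximately 40 uM) and incubated 48 hours with HeLa miR-21-FLuc reporter cells (miR-21 target sequence downstream of FLuc, endogenous miR-21). Readout was firefly luciferase luminescence after lytic detection reagent.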
Numbers without * were called inactive; ? = inconclusive; / = no result given; & = joins results of further samples. A portion of the library; rates above refer to the full screens.

SMILES	GLA inh pH 4.5	Rango-impB inh	Rango dissoc inh	miR-21 FLuc
COc1ccc(Oc2nc3ccccc3nc2C(F)(F)F)cc1	-12	3.8%	1%	-3%
O=C(Nc1cccc(S(=O)(=O)N2CCOCC2)c1)c1cc([N+](=O)[O-])ccc1N1CCOCC1	/	-1.5%	4%	/
O=C(Nc1cc2c(cc1Br)OCCCO2)c1cccnc1	/	4.6%	-13%	-31%
COc1cc(CC(=O)Oc2ccc3c(c2)OCO3)cc(OC)c1OC	-24	0.1%	13%	-11%
CCOC(=O)C1CN(S(=O)(=O)c2ccc(OC)cc2)c2ccccc2O1 (centres undefined)	/	-0.1%	10%	-3%
COc1cccc(-c2nn[nH]n2)c1O	7	1.1%	8%	-4%
Cc1ccc(Nc2c(N)c(=O)oc3ccccc23)cc1	-10	?	-27%	-8%
CSCc1c(C(=O)OCC(=O)c2ccc[nH]2)oc2ccccc12	/	-0.8%	-7%	/
O=[N+]([O-])c1ccc(O)c(N=Cc2sc3ccccc3c2O)c1	-10	?	?	-27%
CCCC(c1nnnn1Cc1cccs1)N1CCN(C2CCCC2)CC1 (centres undefined)	-2	-0.1%	-4%	5%
CNC(=S)NNC(=O)c1cn(C)nc1C	-3	-0.1%	0%	-5%
CCC1CCCCN1S(=O)(=O)c1ccc2[nH]c(=O)ccc2c1 (centres undefined)	/	2.5%	26%	-4%
CC(=O)N1CCc2cc(S(=O)(=O)NCC(=O)NCc3ccc(Cl)cc3)ccc21	/	6.6%	-3%	-2%
CC(=O)CC(=O)Nc1ccn(-c2ccccc2)n1	0	-0.5%	-10%	-4%
Nc1cc(OC(=O)c2cccs2)nn1S(=O)(=O)c1ccc(F)cc1	-3	0.0%	15%	-3%
CSc1nnc2ccc(-c3ccccn3)nn12	1	0.6%	1%	-1%
CC(Cc1nnc(SCC(=O)O)n1N)c1ccccc1 (centres undefined)	/	-4.0%	-2%	0%
Cc1nc2cc(-c3cccs3)nn2c(NCC(C)(C)CN(C)C)c1C	-15	3.7%	-12%	-2%
COc1ccc(Cl)cc1N1C(=O)C2CCCN2C1c1ccc(F)cc1 (centres undefined)	1	-0.9%	11%	-4%
COC(=O)c1cc(S(=O)(=O)Nc2ccsc2C(=O)OC)oc1C	0	0.9%	-11%	1%
CCN=C1S/C(=C\c2cn(CC(=O)NCCOC)c3ccccc23)C(=O)N1CC	-7	-1.7%	-13%	-4%
O=C(CN1CCOCC1)Nc1cc(C(F)(F)F)ccc1Cl	5	-9.1%	1%	4%
CCOc1ccc(NC(=O)CN(C)C(=O)Cc2n[nH]c(=O)c3ccccc23)cc1OCC	/	-0.7%	9%	/
COc1ccc(Cn2c(=S)[nH]c3ccsc3c2=O)cc1	-4	-1.8%	-5%	-21%
COc1ccc(-n2nc(C(=O)N3CCCCC3)c(C)c(C#N)c2=O)cc1	-5	-2.9%	-1%	-4%

Next part; the last 2 above are carried over.
SMILES	GLA inh pH 4.5	Rango-impB inh	Rango dissoc inh	miR-21 FLuc
COc1ccc(Cn2c(=S)[nH]c3ccsc3c2=O)cc1	-4	-1.8%	-5%	-21%
COc1ccc(-n2nc(C(=O)N3CCCCC3)c(C)c(C#N)c2=O)cc1	-5	-2.9%	-1%	-4%
NC(=S)N/N=C/c1ccc(-n2nncc2-c2ccc(Cl)cc2)cc1	/	0.4%	-1%	-11%
O=C1CC(c2ccco2)CC(O)=C1C=NCCN1CCNCC1 (centres undefined)	-10	-2.3%	-1%	-5%
Cc1ccc(CCNC(=O)c2nnn(-c3cccc(C)c3)c2N)cc1	5	4.0%	0%	14%
COc1ccc(-c2csc(NCCc3nc4cc(Cl)c(N5CCCCC5)cc4n3CCOCCO)n2)cc1	/	0.2%	-2%	/
NC(=O)COC(=O)c1cc([N+](=O)[O-])ccc1NCCO	1	-0.3%	6%	-1%
COC(=O)c1cc(C#N)c(OC)nc1C	6	0.0%	1%	0%
CCOC(=O)C1CCN(CCC(=O)Nc2cccc(C)c2)CC1	0	-4.1%	7%	-1%
COc1ccc(/C=C/C(=O)NC2CCCCCC2)cc1S(=O)(=O)N1CCOCC1	-1	-0.9%	16%	-56%
Cc1cccc(Nc2nccc(N(C)C)c2C#N)c1	1	1.1%	9%	-8%
CCOc1ccc(CCNC(=O)CCc2nc(-c3ccc(OC)cc3)no2)cc1OCC	0	-3.5%	12%	-1%
Cc1cccc(-n2ncc3c(N)ncnc32)c1	-3	0.0%	8%	-51%
COc1ccc(-c2onc3ccc(C(C)=O)cc23)cc1	/	?	?	-19%
CC(=O)Nc1ccc(S(=O)(=O)Nc2ccc(N3CCCCC3)cc2)cc1	/	-1.3%	9%	/
COc1ccc(-c2cc(C(=O)OCC(=O)N3CCOCC3)c3ccccc3n2)cc1	/	?	-8%	/
Cc1ccccc1S(=O)(=O)Cc1ccc(C(=O)NCCc2ccccc2)o1	/	2.1%	2%	-30%&-8%
O=C(c1sc2ccccc2c1Cl)N(Cc1ccccc1Cl)C1CCS(=O)(=O)C1 (centres undefined)	-8	0.0%	1%	-3%
Cc1cc(C)nc(N(C#N)CN2C(=O)c3ccccc3C2=O)n1	-10	1.3%	0%	4%
COc1ccc(OCC(=O)N/N=C\c2ccco2)cc1	3	-1.3%	-4%	-3%
Clc1ccc(CCNc2nc3ccccc3s2)cc1	2	5.3%	11%	-25%
N#Cc1ccc(C(=O)N2CCC3CC2c2cc(-c4ccccc4)ccc23)cc1 (centres undefined)	/	-1.9%	13%	/
COc1ccc(CN2CCNC(=O)C2CC(=O)NC2CCC2)c(OC)c1 (centres undefined)	/	0.5%	4%	-2%
CC1=C(C(N)=O)C(c2cccc(OCc3ccccc3)c2)n2nnnc2N1 (centres undefined)	3	-2.2%	-7%	-4%
O=C(CNC(=O)c1ccc(Cl)cc1)N/N=C/C=C/c1ccccc1	2	7.4%	8%	-1%
COc1ccccc1C(=O)Nc1ccc(OCC(=O)N2CCCCC2)cc1	/	-0.1%	-14%	/
COc1ccc(NC(=O)CSc2nc3ccccc3c(=O)n2CCCO)cn1	/	?	-1%	/

The closing 3 records of the part above come first, to join the parts.
SMILES	GLA inh pH 4.5	Rango-impB inh	Rango dissoc inh	miR-21 FLuc
O=C(CNC(=O)c1ccc(Cl)cc1)N/N=C/C=C/c1ccccc1	2	7.4%	8%	-1%
COc1ccccc1C(=O)Nc1ccc(OCC(=O)N2CCCCC2)cc1	/	-0.1%	-14%	/
COc1ccc(NC(=O)CSc2nc3ccccc3c(=O)n2CCCO)cn1	/	?	-1%	/
CCOc1ccc2nc(CN3CCN(Cc4ccsc4)C(CCO)C3)ccc2c1 (centres undefined)	-5	-4.2%	-7%	3%
O=C(Nc1ccc(O)cc1)c1c(O)c2c([nH]c1=O)CCCC2	0	0.2%	1%	-56%
COc1ccc(C2=Nn3c(nnc3-c3ccccc3OC)SC2)cc1OC1CCCC1	/	-7.4%	-12%	/
COc1ccc2oc(C(=O)N(C)CCOc3ccccc3)c(C)c2c1	/	-2.7%	-12%	-58%
Cc1cccc(NS(=O)(=O)c2cc(C(=O)OC(C)C(=O)NCc3ccc4c(c3)OCO4)ccc2C)c1 (centres undefined)	-2	0.3%	-5%	-4%
O=C1C(Cl)=C(Nc2ccccc2O)C(=O)N1c1ccccc1	2	-1.2%	-9%	-24%
Cc1ccccc1C(=O)NC(C)c1ccc2c(c1)CCCC2 (centres undefined)	-3	0.7%	0%	6%
O=C(CCN1C(=O)C2C3C=CC(C3)C2C1=O)N1CCN(c2ccccc2Cl)CC1 (centres undefined)	4	-0.9%	35%	-8%
Cc1ccc(S(=O)(=O)NNC(=O)c2cc(C)c(C)cc2N)cc1	/	-1.3%	0%	/
CCOC(=O)N1CCC(NC(=O)c2ccc3c(c2)N=C(C)c2c(C)ccc(C)c2S3)CC1	/	1.5%	-5%	28%
O=C(O)c1ccc(Cl)c(N2C(=O)Nc3ccccc3N2O)c1	-20	1.3%	15%	-3%
CCOc1ccc2c(=O)c(Oc3ccccc3)c(C)oc2c1	4	1.1%	7%	2%
Cc1ccc(CNC(=O)CNS(=O)(=O)c2ccc3c(c2)C(C)(C)C(=O)N3C)cc1	/	-0.5%	-23%	1%
CCOc1ccc(C(C(=O)NCCOC)N(CCOC)C(=O)CCC(=O)Nc2ccccn2)cc1 (centres undefined)	/	-3.0%	28%	1%
CCCCN(C)C(=O)C1CCN(Cc2ccc(OCc3ccccc3)cc2)CC1	-4	6.7%	0%	-2%
Cc1cnc(NC(=O)c2sc3ccccc3c2Cl)s1	4	3.8%	-3%	-53%
C=CCNC(=O)COC(=O)c1c2c(nc3ccccc13)CCC2	/	3.2%	-12%	11%
O=C(Nc1cccc(-c2ccc(N3CCCCC3)nn2)c1)c1ccc(Br)o1	/	-5.5%	-2%	/
CC1CCN(c2ccc(C(=O)Nc3ccc4c(c3)OCO4)cc2[N+](=O)[O-])CC1	-3	2.9%	18%	8%
Cc1ccc(NC(=O)c2ccc(=O)[nH]n2)cc1S(=O)(=O)Nc1ccccc1Cl	/	-0.2%	26%	/
COc1ccc(N(C)S(=O)(=O)c2cccc(C(=O)NCc3ccc(C)cc3)c2)cc1	/	-2.3%	1%	/
O=C(O)C1Cc2[nH]cnc2C(c2cccc([N+](=O)[O-])c2)N1 (centres undefined)	5	3.9%	19%	-2%
COc1ccc(-n2cnnc2SCC(=O)NC2CCCc3ccccc32)cc1 (centres undefined)	-6	0.2%	-19%	-7%
COc1ccc(Nc2cc(C)nc3nc(C)nn23)cc1Cl	-9	0.2%	-5%	-6%
Cn1c(CC(=O)Nc2ccccc2F)nnc1SCC(=O)NC1CCCCC1	/	3.1%	0%	1%
(list continues)
SMILES	GLA inh pH 4.5	Rango-impB inh	Rango dissoc inh	miR-21 FLuc
c1ccc(SCc2nc(-c3cccnc3)no2)cc1	-3	-1.1%	-6%	-43%
COc1ccc(Nc2nc(-c3cccs3)nc3ccccc23)c(OC)c1	12	?	-10%	-10%
CCc1cccc(CC)c1NC(=O)COC(=O)Cc1ccsc1	-10	0.2%	-9%	1%
COc1ccccc1CNC(=O)c1ccc(N(C)S(=O)(=O)c2ccc(C)cc2)cc1	/	-1.7%	-2%	0%
CCOC(=O)C1=NN(c2ccccc2)C(=O)/C1=C\c1ccc(N(C)C)cc1	2	-3.6%	-6%	0%
c1ccc(Cn2nnnc2CN2CCN(Cc3ccc4c(c3)OCO4)CC2)cc1	0	1.1%	-11%	-7%
O=C(CN1CCCCC1)N1c2ccccc2Sc2ccc(C(F)(F)F)cc21	-5	-0.3%	-20%	-8%
O=C(CCNC(=O)Cn1ccc2ccccc2c1=O)NCCCN1CCN(c2ccccc2F)CC1	-18	-0.2%	-3%	-7%
CCC(C)NC(=O)c1ccc2c(c1)N(Cc1ccccc1)C(=O)CS2 (centres undefined)	-6	0.5%	3%	-3%
Cc1ccc2cc(N)ccc2n1	0	1.3%	-5%	-5%
COc1ccc(-c2sc3cc(OC)c(OC)cc3c2C#CC2(O)CCCCC2)cc1	/	1.8%	0%	/
O=C(COc1ccc2c3c(c(=O)oc2c1)CCC3)NCCN1CCOCC1	/	-1.5%	?	3%
CCOc1ccc(NC(=O)C2CCCN(C(=O)NCc3ccccc3)C2)cc1 (centres undefined)	-3	-3.3%	-2%	-2%
Cc1ccc([C@H]2C(C#N)=C(N)Oc3cc(C)oc(=O)c32)o1	3	-2.1%	-7%	8%
C/C(=N\NC(=O)NC1CCCCC1)c1ccco1	8	3.3%	9%	-28%
O=C(Nc1ccccc1C(=O)NCCCn1ccnc1)c1ccc(Cl)cc1Cl	2	-0.8%	-19%	2%
Cc1cc(C(=O)NCc2ccc(F)cc2)c2ccccc2n1	/	-2.5%	-1%	-5%
COc1cccc(C(=O)CN(C(=O)c2ccc(Cl)c(Cl)c2)N2C(=O)c3ccccc3C2=O)c1	1	2.4%	11%	-7%
CC(C)C(c1nnnn1Cc1ccccc1)N1CCc2ccccc2C1 (centres undefined)	0	?	-13%	0%
C(=N\Nc1nc(Nc2ccccc2)nc(Nc2ccccc2)n1)/c1ccncc1	8	-0.5%	0%	-1%
COCCCNC(=S)N1CCC(NC(=O)Nc2ccc(C)cc2)CC1	7	2.2%	12%	0%
